Sfp PPTase inh: Sfp phosphopantetheinyl transferase inhibition; Potency, µM, without a hit: max response, negative = inhibition, most hits filed as inhibitors; Biochemical Sfp PPTase activity, qHTS; Q9F4F7; 310,000 tested, 3.5% active; active = well fitted inhibition curve with a large enough effect; inconclusive = small, poorly fitted or top-dose-only effect, or another doubt; inactive = no such curve, though single readings can be large or run the other way;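 note: the enzyme is Sfp with the accession as filed and its product quenches rhodamine fluorescence; potency is the fitted concentration of half-maximal effect; 0% = enzyme reaction without inhibitor and -100% = no enzyme wells; top concentration of the series not given in the record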
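Compounds were incubated with enzyme (final 15 nM) for 15 min at room temperature before substrate addition started the reaction. Fluorescence at 525 nm excitation, 598 nm emission was recorded immediately and after 30 minutes.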
PINK1 modulator: changes PINK1 expression; PINK1 immunofluorescence, high-content cytometry, 24 h; Potency, µM (doses to about 76.6 µM), without a hit: top-dose activation (PINK1 increase), actives largely listed as activators; 410,000 tested, 0.2% active; active = well fitted activation curve with a large enough effect; inconclusive = small, poorly fitted or top-dose-only effect; inactive = flat fitted curve, though single readings scatter; cell line not stated here;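 note: potency is the fitted concentration of half-maximal effect; % of control where 0% means no effect; nearly all actives have a fitted effect of over 65% in size; a mitochondrial uncoupler was the plate control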
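Compound titrations (5 concentrations, 24 h) on a stable cell line; DMSO and CCCP controls. Endpoint: fixed-cell PINK1 immunofluorescence with mitochondrial, cell and nuclear markers, scanned by microplate cytometer.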
D2 ag: activates the human D2 dopamine receptor. P14416. DiscoveRx PathHunter D2 beta-arrestin, luminescence, 90 min; 100% = 57 uM dopamine signal. activation, % (concentration not given with the values). 360,000 tested, 0.084% active; in the data active = activation above about 40%; inconclusive = about 15% to 40%; inactive = below about 15%; note: compound concentration not given in the record; the text of the record calls up to 30% inactive
Target sequence (P14416 whole entry, looked up): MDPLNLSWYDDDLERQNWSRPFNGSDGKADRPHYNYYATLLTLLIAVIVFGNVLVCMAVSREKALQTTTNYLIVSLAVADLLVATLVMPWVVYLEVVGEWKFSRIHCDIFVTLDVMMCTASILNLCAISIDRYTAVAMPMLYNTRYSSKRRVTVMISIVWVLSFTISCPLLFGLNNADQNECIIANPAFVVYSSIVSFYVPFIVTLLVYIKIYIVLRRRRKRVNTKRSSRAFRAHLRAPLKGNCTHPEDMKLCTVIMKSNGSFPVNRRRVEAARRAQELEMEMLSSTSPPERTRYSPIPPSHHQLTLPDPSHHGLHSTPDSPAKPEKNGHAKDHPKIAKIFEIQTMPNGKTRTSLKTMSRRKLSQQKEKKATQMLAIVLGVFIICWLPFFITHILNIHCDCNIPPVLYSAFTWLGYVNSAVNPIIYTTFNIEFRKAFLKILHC
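Agonist mode: compounds alone added to overnight-plated D2 PathHunter cells for 90 min at 37 C, with 57 uM final dopamine (EC100) defining full response. Beta-arrestin recruitment detected by chemiluminescent reagent, read after 1 h at ambient temperature.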
gsp agonist: agonists of gsp mutant (McCune-Albright syndrome). gsp mutant cells, cAMP HTRF, 30 min; control for the full effect not named in the record. Potency, µM (titrated, usually from 76.9 µM), for the others: top-dose activation (cAMP increase), hits mostly activators. 340,000 tested, 0.13% active; active = well fitted activation curve with a large enough effect; inconclusive = small, poorly fitted or top-dose-only effect, or another doubt; inactive = no such curve, though single readings can be large or run the other way; cell line not stated here;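 note: phosphodiesterase inhibitor Ro 20-1724 added with compounds to block cAMP breakdown; potency is the fitted concentration of half-maximal effect; nearly all actives have a fitted effect of over 60% in size; about a fifth of the inactives were tested at one dose only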
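Cells stably selected in G418 were plated at 2000/well, grown 16-24 hr, then given compounds in DMSO with the PDE inhibitor […] (300 uM solution added) for 30 min at 37C; cAMP was read by HTRF.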
Menin MLL FP FL: inhibitors of human menin-MLL interaction, wild-type MLL peptide; FP activity change, % at 61.4 µM; Fluorescence polarization, fluorescein-MLL peptide displacement from menin; 290,000 tested, under 10 active; inconclusive = falling polarisation curve, or a change in total fluorescence; inactive = total fluorescence flat and polarisation flat or rising; no compound was filed as active; the % refers to the polarisation; negative = inhibition;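 note: % of control where 0% means no effect; inhibitors lower the polarisation; unlabelled MLL peptide was the positive control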
ClpP mod: qHTS Assay for Activators of ClpP; AID 651965, 2013; ATP-dependent Clp protease proteolytic subunit (Bacillus subtilis (strain 168)), P80244; purified B. subtilis ClpP, FRET peptide cleavage, 20 min; Potency, µM (doses to about 57.5 µM), inactives show at the top dose activity change, negative = active; 340,000 tested, 1.9% active; active = well fitted falling curve with a large enough effect; inconclusive = small, poorly fitted or top-dose-only effect; inactive = no such curve, though single readings can be large or run the other way; note: potency is the fitted concentration of half-maximal effect; the source files actives as falling curves though it sought activators and does not explain the sign; nearly all actives have a fitted effect of over 65% in size; many hits overshoot -100%
Target sequence (P80244 whole entry, looked up): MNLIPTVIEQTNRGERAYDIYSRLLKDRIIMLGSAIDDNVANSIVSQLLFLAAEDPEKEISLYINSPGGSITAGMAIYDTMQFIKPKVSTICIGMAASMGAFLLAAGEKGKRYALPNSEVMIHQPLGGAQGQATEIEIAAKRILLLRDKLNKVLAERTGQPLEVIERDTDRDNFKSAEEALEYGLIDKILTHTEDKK
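Purified B. subtilis ClpP, 10 microg/mL final in Tris/HCl pH8 with KCl, BSA, glycerol and Tween-20, cleaved an Abz/nitrotyrosine-quenched decapeptide. Fluorescence (ex 320, em 430) was read at 0 and 20 min at room temperature. Delta was normalized to 5.8 microM ADEP and DMSO/no-enzyme controls.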
gsp antag: antagonizes gsp, the McCune-Albright syndrome mutation; AID 624288; Potency, µM (top dose mostly 76.9 µM), for the others: at the top dose activity change, negative = inhibition, usual class: inhibitors; gsp-mutant cells, cAMP HTRF, 30 min; control for the full effect not named in the record; 340,000 tested, 0.4% active; active = falling curve of any shape with a large fitted effect; inconclusive = falling curve, mostly with a smaller effect; inactive = flat or rising curve; cell line not stated here;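 note: intracellular cAMP measured with PDE inhibitor Ro 20-1724 present during compound exposure; potency is the fitted concentration of half-maximal effect; % is set by controls: 0 for no effect and ±100 for the full control effect; nearly all actives have a fitted effect of over 65% in size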
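Cells, 2000/well, grown 16–24 h in DMEM 10% FBS with 0.5 mg/ml G418, then compounds plus […] (300 uM addition stock), 30 min at 37C. cAMP read by HTRF (cAMP-d2 and anti-cAMP antibody-K in lysis buffer) after 30 min RT.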
The depositor's hits bear a star; [ ] = remark or other dose.

How did Cc1ccc2c(C)c(C(=O)N(Cc3ccc(F)cc3)C3CCS(=O)(=O)C3)oc2c1 (stereo unspecified) do in these assays?
Sfp PPTase inh: -10%; PINK1 modulator: -0.2%; D2 ag: -3.0; gsp agonist: -25%; ClpP mod: -3.3%; gsp antag: -16%

Results for O=C(NS(=O)(=O)N1CCOCC1)C1=C(N2CCCC2)COC1=O ?
PINK1 modulator: 1.8%; D2 ag: -5.0; ClpP mod: -0.4%; gsp antag: 5%

How did Nc1nnc2c(n1)CCCC2 do in these assays?
Sfp PPTase inh: 45µM*; PINK1 modulator: 1.3%; D2 ag: 7.5; gsp agonist: 27%; Menin MLL FP FL: -1.3; ClpP mod: 0.7%; gsp antag: -5%

What do the screens show for `Cc1cccc(/C=C2\Sc3ccc(C(=O)N4CCC(C(N)=O)CC4)cc3N(C)C2=O)c1`?
Sfp PPTase inh: -11%; PINK1 modulator: 5.5%; D2 ag: -2.6; gsp agonist: 1%; ClpP mod: 1.0%; gsp antag: 0%

How did CC(C)C(NC(=O)CCNC(=O)c1ccccc1Cl)c1nc2ccccc2[nH]1 (stereo unspecified) do in these assays?
PINK1 modulator: 5.0%; D2 ag: 1.1; gsp agonist: -3%; ClpP mod: 1.3%; gsp antag: 5%

How did CCc1ccc(OCC(=O)NC(=S)Nc2cccc(CO)c2)c(Br)c1 do in these assays?
Sfp PPTase inh: 25µM*; D2 ag: -1.6; gsp agonist: inconclusive; Menin MLL FP FL: 4.4; ClpP mod: 0.3%; gsp antag: -4%

How did O=C(Nc1cccc(S(=O)(=O)NC2=NCCC2)c1)c1ccccc1OC(F)F do in these assays?
PINK1 modulator: 4.1%; D2 ag: 1.9; gsp agonist: 4%; ClpP mod: -0.9%; gsp antag: 12%

Results for CCN(CC)C(C(=O)Nc1ccc(C(C)C)cc1)c1ccc2c(c1)OCO2 (stereo unspecified) ?
Sfp PPTase inh: 12%; PINK1 modulator: inconclusive; D2 ag: -1.3; gsp agonist: -22%; Menin MLL FP FL: 4.0; ClpP mod: 1.1%; gsp antag: -10%

What do the screens show for `CC(=O)N1c2ccc(S(=O)(=O)N3CCC(C(=O)Nc4cccc(C(F)(F)F)c4)CC3)cc2CC1C` (stereo unspecified)?
Sfp PPTase inh: 15%; PINK1 modulator: -0.9%; D2 ag: -1.4; gsp agonist: 7%; Menin MLL FP FL: -1.5; ClpP mod: -3.1%; gsp antag: -26%

How did CCCOc1ccc(CN(CCO)CCO)cc1[N+](=O)[O-] do in these assays?
Sfp PPTase inh: 18%; PINK1 modulator: 2.1%; D2 ag: 1.3; gsp agonist: -14%; Menin MLL FP FL: 0.3; ClpP mod: -1.0%; gsp antag: 17%

How did CCOC(=O)c1ccc(NC(=O)CSc2nnc(Cc3cccs3)n2C)cc1 do in these assays?
Sfp PPTase inh: 16%; PINK1 modulator: 0.9%; D2 ag: -2.4; gsp agonist: 5%; Menin MLL FP FL: 10.0; ClpP mod: 0.7%; gsp antag: -5%

Results for Cc1ccc(Cn2c(=O)cc(C(=O)O)c3ccccc32)cc1 ?
Sfp PPTase inh: 20%; PINK1 modulator: 9.4%[38.3 µM]; D2 ag: -2.9; gsp agonist: -5%; Menin MLL FP FL: -0.3; ClpP mod: inconclusive; gsp antag: -7%

How did COCC(=O)N(CCc1ccc(OC)c(OC)c1)Cc1nc2ccccc2c(=O)[nH]1 do in these assays?
Sfp PPTase inh: 4%; PINK1 modulator: 0.9%; D2 ag: -3.3; gsp agonist: 0%; Menin MLL FP FL: -1.4; ClpP mod: -3.3%; gsp antag: 7%

Results for Cc1cccc(-n2c(=O)c3c4c(sc3n3c(=S)[nH]nc23)CCC4)c1 ?
Sfp PPTase inh: inconclusive; PINK1 modulator: 0.6%; D2 ag: 0.3; gsp agonist: -21%; Menin MLL FP FL: 2.6; gsp antag: -29%

What do the screens show for `Cc1ccccc1-n1nnnc1SCCCC(=O)c1ccc(F)cc1`?
Sfp PPTase inh: 7%; PINK1 modulator: -1.8%; D2 ag: 2.9; gsp agonist: -12%; Menin MLL FP FL: -2.2; ClpP mod: -1.4%; gsp antag: -25%

Results for CCOC(=O)c1sc(-c2cccc([N+](=O)[O-])c2)cc1N ?
Sfp PPTase inh: 16%; PINK1 modulator: 2.5%; D2 ag: inconclusive; gsp agonist: 11%[15.4 µM]; Menin MLL FP FL: -0.5; gsp antag: -27%

How did CC(C)c1ccc(NC(=O)C(c2ccc3c(c2)OCO3)N2CCC3(CC2)OCCO3)cc1 (stereo unspecified) do in these assays?
Sfp PPTase inh: 2%; PINK1 modulator: -0.9%; D2 ag: -2.8; gsp agonist: -26%; Menin MLL FP FL: -4.2; ClpP mod: -2.6%; gsp antag: 3%

Results for CCOc1ccc(N(CC(=O)NC2CCCCC2)C(=O)CCC(=O)Nc2nc(C)cs2)cc1 ?
Sfp PPTase inh: 5%; PINK1 modulator: -1.7%; D2 ag: -3.6; gsp agonist: 20%; Menin MLL FP FL: 1.1; gsp antag: 2%

What do the screens show for `COc1ccc(OC)c(CCNC(=O)CCCC(=O)n2ncc3cc(C)ccc32)c1`?
Sfp PPTase inh: -2%; PINK1 modulator: -0.9%; D2 ag: -3.0; gsp agonist: inconclusive; Menin MLL FP FL: 4.5; ClpP mod: 14%; gsp antag: -17%

What do the screens show for `Nc1cc(-c2ccc(Br)cc2)nn1S(=O)(=O)c1cccc2nsnc12`?
Sfp PPTase inh: 9%; PINK1 modulator: 1.4%; D2 ag: -5.1; gsp agonist: -16%; Menin MLL FP FL: 0.7; ClpP mod: -0.8%; gsp antag: -22%

What do the screens show for `COc1cccc(CNC23CC4CC(CC(C4)C2)C3)c1OCc1ccccc1`?
Sfp PPTase inh: -10%; PINK1 modulator: 9.5%; D2 ag: -5.0; gsp agonist: -30%[inhibitor]; Menin MLL FP FL: -0.3; ClpP mod: 0.7%; gsp antag: 10%

What do the screens show for `Cc1ccccc1C(=O)NC(C)C(c1cccs1)N1CCOCC1` (stereo unspecified)?
Sfp PPTase inh: 22%; PINK1 modulator: 2.6%; D2 ag: -5.3; gsp agonist: -44%[inhibitor]; Menin MLL FP FL: 1.2; ClpP mod: 0.9%; gsp antag: 3%

Results for c1ccc2c(NC3CCNCC3)nc(-c3ccoc3)nc2c1 ?
Sfp PPTase inh: -2%; PINK1 modulator: 1.2%; Menin MLL FP FL: 1.3

How did CC(=O)C1=C(O)C(=O)N(c2ccc(O)cc2)C1c1ccc(F)cc1 (stereo unspecified) do in these assays?
Sfp PPTase inh: 2%; PINK1 modulator: -1.5%; D2 ag: -6.4; gsp agonist: inconclusive; Menin MLL FP FL: 0.1; ClpP mod: -1.6%; gsp antag: 6%

What do the screens show for `Cc1ccc2c(cnn2C(=O)CCC(=O)NCc2cccc(Cl)c2)c1`?
Sfp PPTase inh: -23%; PINK1 modulator: 7.1%; D2 ag: -3.8; gsp agonist: -44%[inhibitor]; Menin MLL FP FL: -1.4; ClpP mod: -4.2%; gsp antag: 2%

Results for O=C(COC(=O)Cc1cccs1)Nc1cc(S(=O)(=O)N2CCOCC2)ccc1Cl ?
PINK1 modulator: -3.5%; D2 ag: 1.6; gsp agonist: 0%; gsp antag: 8%

What do the screens show for `C=CCc1ccc(OCCCNC2CCCC2)c(OC)c1`?
PINK1 modulator: -2.8%; D2 ag: 0.5; gsp agonist: 21%; gsp antag: 2%

How did Cc1ccc(S(=O)(=O)NC(CC(C)C)C(=O)N2CCC(C)CC2)cc1 (stereo unspecified) do in these assays?
Sfp PPTase inh: 1%; PINK1 modulator: 1.8%; D2 ag: -7.2; gsp agonist: -49%[inhibitor]; Menin MLL FP FL: -3.4; ClpP mod: -0.5%; gsp antag: 4%

Results for COc1ccc(C(CNC(=O)c2ccc(OCc3cscn3)cc2)N2CCCC2)cc1 (stereo unspecified) ?
PINK1 modulator: -1.4%; D2 ag: 0.5; gsp agonist: 0%; ClpP mod: 1.9%

Results for CCOC(=O)N1CCN(C(=O)c2ccc(NS(=O)(=O)c3ccc(C)cc3)cc2)CC1 ?
Sfp PPTase inh: 9%; PINK1 modulator: -1.4%; D2 ag: -0.1; gsp agonist: 10%; Menin MLL FP FL: 2.5; ClpP mod: -0.4%; gsp antag: -12%

Results for CCOc1cccc2cc(-c3cn4cc(C)ccc4n3)c(=O)oc12 ?
Sfp PPTase inh: 14%; PINK1 modulator: 2.3%; D2 ag: -0.7; gsp agonist: -5%; Menin MLL FP FL: 5.4; ClpP mod: -1.8%; gsp antag: 13%

Results for COC(=O)c1c(C)c2c(C)cc3ccccn3c-2c1C(=O)OC ?
Sfp PPTase inh: -6%; PINK1 modulator: -0.8%; D2 ag: -3.9; gsp agonist: -7%; Menin MLL FP FL: -13; ClpP mod: 7.9%; gsp antag: -7%

What do the screens show for `CN(CC(=O)Nc1c(Cl)cccc1Cl)C(=O)c1sccc1-c1ccccc1`?
PINK1 modulator: 0.5%; D2 ag: -7.1; gsp agonist: -4%; ClpP mod: 0.2%; gsp antag: -2%

Results for O=C1c2cccnc2C(=O)N1Cc1ccco1 ?
Sfp PPTase inh: -9%; PINK1 modulator: 3.2%[38.3 µM]; D2 ag: -3.2; gsp agonist: 8%; Menin MLL FP FL: -2.3; ClpP mod: 0.7%; gsp antag: 0%

Results for Cc1ccc(S(=O)(=O)CCC(=O)Nc2ccccc2N2CCCC2)cc1 ?
PINK1 modulator: -1.1%; D2 ag: -7.0; gsp agonist: -16%; ClpP mod: -2.1%; gsp antag: -13%

How did CC(C)(CNC(=O)c1cc2ccccc2o1)N1CCOCC1 do in these assays?
Sfp PPTase inh: 18%; PINK1 modulator: 0.4%; D2 ag: 1.1; gsp agonist: 0%; Menin MLL FP FL: 0.3; ClpP mod: -23%; gsp antag: 4%

How did Cc1c(C)n(C)c2ccc(C(=O)NCc3cccs3)cc12 do in these assays?
Sfp PPTase inh: 3%; PINK1 modulator: 0.9%; D2 ag: 1.7; gsp agonist: -32%[inhibitor]; Menin MLL FP FL: 0.8; ClpP mod: -7.4%; gsp antag: -7%
